RecA intein inh: Mtb RecA intein splicing inhibitors, primary screen, biochemical, fluorescence, HTS; Protein RecA (Mycobacterium tuberculosis (strain ATCC 25618 / H37Rv)), P9WHJ3; cell-free RecA intein splicing; inhibition, %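 (about 9 µM by stock and volumes)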; 290,000 tested, 0.75% active; in the data active = inhibition above about 30%; inconclusive = no clear call, values can overlap the other calls;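 also: 0% = vehicle wells and 100% = reference inhibitor control wells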
Target sequence (P9WHJ3 whole entry, looked up): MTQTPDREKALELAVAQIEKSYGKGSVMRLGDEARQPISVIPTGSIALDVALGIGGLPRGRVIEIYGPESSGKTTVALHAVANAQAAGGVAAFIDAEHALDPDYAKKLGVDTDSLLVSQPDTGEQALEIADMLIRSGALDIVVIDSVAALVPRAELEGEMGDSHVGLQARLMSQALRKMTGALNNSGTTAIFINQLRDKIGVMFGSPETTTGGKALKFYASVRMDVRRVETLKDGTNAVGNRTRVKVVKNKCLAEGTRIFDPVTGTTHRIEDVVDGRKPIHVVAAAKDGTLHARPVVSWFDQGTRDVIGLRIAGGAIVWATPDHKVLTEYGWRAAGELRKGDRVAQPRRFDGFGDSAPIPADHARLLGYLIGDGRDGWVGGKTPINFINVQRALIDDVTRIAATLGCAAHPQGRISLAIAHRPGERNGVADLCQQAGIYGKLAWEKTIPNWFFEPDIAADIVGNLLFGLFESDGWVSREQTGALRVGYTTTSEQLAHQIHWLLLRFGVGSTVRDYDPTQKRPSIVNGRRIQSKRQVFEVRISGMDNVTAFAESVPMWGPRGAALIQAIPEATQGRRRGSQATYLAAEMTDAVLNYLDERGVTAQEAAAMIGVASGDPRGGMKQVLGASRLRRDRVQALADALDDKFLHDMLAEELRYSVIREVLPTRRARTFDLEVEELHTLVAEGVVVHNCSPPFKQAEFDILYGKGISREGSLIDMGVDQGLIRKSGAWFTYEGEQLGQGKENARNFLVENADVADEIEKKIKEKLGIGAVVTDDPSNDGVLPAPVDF
Mtb H37Rv: M. tuberculosis H37Rv growth inhibitors, H37Rv strain (AID 1626); M. tuberculosis H37Rv growth inhibition; higher % means a stronger effect; inhibition, % at 10 µM, or IC50 in µM where a hit was titrated; 220,000 tested, 0.95% active;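 active = confirmed in a dose series; inconclusive = inhibition above 80% but not taken into the dose series; inactive = below 80% or under 30% at every dose of the series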;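 also: bacteria incubated seven days before Alamar blue readout; 0% = bacteria only wells and 100% = bacteria with antibiotic wells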
Arbovirus inh: antivirals against arbovirus infection, primary screen, cell-based, full library, 10K replicate subset; AID 1251, 2008; inhibition, % at 10 µM; arbovirus infection cell-based antiviral screen; 200,000 tested, 0.37% active;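 active = inhibition from about 30%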;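 also: bluetongue infection of BSR cells; cell survival read as ATP light after 72 h; 0% = infected wells without compound and 100% = uninfected wells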
Mtb betalactam: beta-lactam sensitization of Mtb H37Rv, H37Rv. M. tuberculosis H37Rv growth with meropenem, percent inhibition; hits of this screen are not shown here. inhibition, % at 25 µM. 330,000 tested, 0.27% active. AID 434955, 2010;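 active = about 74% or more and at least 40 points above the plate without the antibiotic, then above 30% in a dose series; inconclusive = first-round hits that could not be retested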;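 also: growth measured after seven days incubation then overnight dye step; 0% = bacteria only wells and 100% = bacteria with antibiotic; twin plates without the antibiotic show which effects depend on it; some results filed as inactive read as strong as hits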
YopH PTP inh: YopH tyrosine phosphatase inhibitors, primary screen, biochemical, fluorescence Ex485/Em525; inhibition, %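 (about 10 µM by stock and volumes)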; 140,000 tested, 0.16% active; AID 898, 2007;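 active = inhibition of 50% or more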;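 also: controls were vehicle for no effect and minimum signal wells for full effect; inactives centre near -20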
* marks the source's active call; other numbers are inactive results; ? = inconclusive; . = not tested or not shown.

Compound	Arbovirus inh	Mtb betalactam	RecA intein inh	Mtb H37Rv	YopH PTP inh
CCOC(=O)C(NC(=O)c1ccccc1F)(Nc1cc(C)on1)C(F)(F)F (stereo unspecified)	3	-6	1.0	3%	-35
COc1ccc(C(=O)C[n+]2ccc(N)c(C)c2C)cc1	2	-6	-2.1	5%	.
CCOC(=O)c1c(NC(=O)c2ccco2)sc2c1CCCCC2	-9	-1	-0.7	3%	-33
C/C(N)=C(/C#N)C(=O)COC(=O)c1ccc(OCC2CCCO2)cc1 (stereo unspecified)	.	1	-0.3	.	.
Cc1cc(C)c(NC(=O)c2ccccc2N(C)S(C)(=O)=O)c(C)c1	-1	.	-1.3	8%	-16
COc1ccc(C(=O)NNC(=O)CSc2nnnn2-c2cc(OC)cc(OC)c2)cc1	.	0	-1.0	.	.
COc1cc(S(=O)(=O)Nc2ccc(C)cc2)ccc1N=Cc1c(C)[nH]n(-c2ccc(C)cc2)c1=O	-11	-2	-2.1	6%	-19
CC(=O)N1CCN(Cc2nc3cc(NC(=O)c4ccccc4C)ccc3n2C)CC1	13	-5	1.5	6%	-8
Cc1cccc(C(=O)Nc2nnc(Cc3ccccc3)s2)c1	.	2	2.9	.	.
CC(NS(=O)(=O)c1ccc(Br)cc1)C(=O)NCC1CCCO1 (stereo unspecified)	.	-3	0.2	.	.
O=c1[nH]cn[nH]1	1	-7	-0.5	-21%	.
CCOC(=O)C1CCCN(c2c(Nc3ccc(C)c(C)c3)c(=O)c2=O)C1 (stereo unspecified)	-1	-5	0.6	0%	-7
Cc1cccc(C(=O)Nc2ccccc2C(=O)OCc2c(C)noc2C)c1	2	9	0.4	-2%	-40
Cc1nnsc1-c1c(C(=O)O)c(C)nn1-c1ccc(OC(F)(F)F)cc1	.	-7	4.7	4%	.
CCCn1cc(S(=O)(=O)c2ccc(C)cc2)c(=O)c2cc(OC)ccc21	.	?	2.7	.	.
COC(=O)COc1cc(C)cc2oc(=O)c(CC(=O)OC)c(C)c12	7	-6	-3.0	-12%	-35
CC(C)(C)n1nnnc1C(c1ccc(F)cc1)N1CCN(Cc2ccc3c(c2)OCO3)CC1 (stereo unspecified)	11	-4	-1.1	-3%	-15
COc1ccc(NC(=O)C(NC(=O)Cc2cccs2)c2ccc(C)cc2)cc1 (stereo unspecified)	-5	5	-1.0	-2%	-11
CCN1C(=O)c2cccc3c(S(=O)(=O)NCCc4c[nH]c5ccccc45)ccc1c23	12	10	-6.0	-2%	-7
Cc1ccc(-c2cc(C(=O)N3CCOCC3)no2)cc1	.	5	1.3	.	.
O=C(NC1CC(=O)N(c2ccc(Cl)cc2)C1)N1CCN(C(=O)c2ccco2)CC1 (stereo unspecified)	.	-5	-2.1	.	.
COc1ccccc1NC(=O)Cn1ccn(-c2cccc3ccccc23)c(=O)c1=O	.	-4	1.0	.	.
COc1cc(/C=N/N2C(=O)C3C4c5ccccc5C(c5ccccc54)C3C2=O)ccc1O (stereo unspecified)	-3	1	0.9	-5%	-25
COc1cc(OC)cc(C(=O)Nc2ncc3c(n2)CC(C)(C)CC3=O)c1	0	1	0.0	1%	-34
Cn1cccc1CNCCc1ccccc1	-5	4	0.1	-1%	-6

Some of these compounds in order of molar mass, rising.
Compound	Arbovirus inh	Mtb betalactam	RecA intein inh	Mtb H37Rv	YopH PTP inh
O=c1[nH]cn[nH]1	1	-7	-0.5	-21%	.
COc1cc(OC)cc(C(=O)Nc2ncc3c(n2)CC(C)(C)CC3=O)c1	0	1	0.0	1%	-34
Cc1nnsc1-c1c(C(=O)O)c(C)nn1-c1ccc(OC(F)(F)F)cc1	.	-7	4.7	4%	.

Later entries.
Compound	Arbovirus inh	Mtb betalactam	RecA intein inh	Mtb H37Rv	YopH PTP inh
C#CCSc1nc(Cc2ccc(Cl)cc2)nc2ccccc12	-15	8	1.8	-13%	-45
Cc1ccc(S(=O)(=O)NC2(C(F)(F)F)NC(=O)N(c3ccccc3F)C2=O)cc1 (stereo unspecified)	.	-3	-1.5	.	.
O=C(O)c1csc(-c2ccccc2)n1	.	-7	-0.9	-2%	.
CCOc1ccc(NC(=O)CN2CCC(n3cnc4cc(F)ccc43)CC2)cc1	3	-1	2.1	12%	.
CCC(=O)N1c2ccccc2NC2=C(C(=O)CC(C)(C)C2)C1c1ccc(O)c(OC)c1 (stereo unspecified)	.	-8	-1.4	.	.
CCCCC(=O)N/C(N)=N/c1nc2ccccc2o1	.	-4	-3.1	6%	.
CCOC(=O)Cc1csc(NC(=O)C2CCCN(S(=O)(=O)c3cnc[nH]3)C2)n1 (stereo unspecified)	5	3	.	-4%	-37
Cn1c(CNC(=O)CCNC(=O)c2ccc(F)c(F)c2)cc(=O)n(C)c1=O	.	-1	-0.3	.	.
COc1ccccc1CC(=O)NCC1CCCO1 (stereo unspecified)	5	-1	-2.1	1%	.
CCOC(=O)CSc1nc(-c2ccc3c(c2)OCO3)ccc1C#N	6	4	-2.6	-2%	-29
COc1ccc(CNCCSc2nnnn2C)cc1OC	9	-7	.	-3%	13
Cc1cc(N2CCN(C)CC2)nc2ccc(NC(=O)c3ccccc3F)cc12	-25	12	-1.6	2%	.
Cc1ccnc(NS(=O)(=O)c2ccc(NC(=O)C3CC3)cc2)n1	.	-9	0.2	.	.
Cc1ccc(S(=O)(=O)N2CCN=C2SCc2ccc(Cl)c(Cl)c2)cc1	2	5	1.2	0%	-11
Fc1ccc(C2c3cccn3CCN2C(=S)Nc2cccc(F)c2)cc1 (stereo unspecified)	-16	2	4.3	3%	.
O=C(O)c1cnn2cc(-c3[nH]ncc3[N+](=O)[O-])cnc12	2	-3	-1.5	-1%	-18
CC(=O)OC1CC(n2ccc(NC(=O)c3ccccc3)nc2=O)OC1CO (stereo unspecified)	13	-11	1.1	-5%	-7
CCOC(=O)c1c(C)[nH]c(C)c1S(=O)(=O)N(C)CC(=O)Nc1ccccc1OC	.	-1	2.9	.	.
CCOc1cc(C=O)ccc1OCCSc1ccc(Cl)cc1	8	13	8.1	5%	-25
Cc1cc(C)nc(-n2nc(C)c3c(C(F)F)cc(C)nc32)n1	5	-3	0.7	1%	-32
O=C(c1cc2ccccc2c(=O)o1)N1CCCC1	5	.	-1.7	3%	-8
O=C(Cc1c[nH]c2ccccc12)NCc1ccc2c(c1)OCO2	3	-1	-2.7	9%	-45
Nn1c(SCC(=O)N2CCc3ccccc3C2)nnc1-c1cccs1	0	-14	0.6	-8%	-3
N[C@@H](Cc1ccccc1)c1nnc(SCc2ccccc2F)o1	1	?	-5.2	-18%	-44
COc1cc(O)c(C(CC(=O)N2CCCC(C)C2)c2ccc3c(c2)OCO3)c(OC)c1 (stereo unspecified)	.	-3	3.9	-2%	.

Grouped by structure, those above containing a cyano group.
Compound	Arbovirus inh	Mtb betalactam	RecA intein inh	Mtb H37Rv	YopH PTP inh
C/C(N)=C(/C#N)C(=O)COC(=O)c1ccc(OCC2CCCO2)cc1 (stereo unspecified)	.	1	-0.3	.	.
CCOC(=O)CSc1nc(-c2ccc3c(c2)OCO3)ccc1C#N	6	4	-2.6	-2%	-29

Additional results follow.
Compound	Arbovirus inh	Mtb betalactam	RecA intein inh	Mtb H37Rv	YopH PTP inh
CCOC(=O)c1c(NC(=O)CC2Sc3ccc(C(F)(F)F)cc3NC2=O)sc(C)c1C (stereo unspecified)	4	-2	-0.4	-4%	-17
FCCCOc1ccc(/C=N/OCc2ccc(Cl)cc2Cl)cc1	21	2	2.6	15%	-29
CCOC(=O)CN1C(=O)S/C(=C/c2cc(C)n(C)c2C)C1=O	.	10	.	9%	-36
COc1cc(/C=C(\C#N)C(=O)Nc2ccccc2)ccc1OCCN1CCOCC1	.	-2	1.5	.	.
Cc1nn(-c2ccccn2)c2c1C(=O)C(Br)CC2 (stereo unspecified)	-8	.	.	-7%	.
CC(=O)Nc1ccc(S(=O)(=O)N2CCCCC2C(=O)O)cc1 (stereo unspecified)	2	1	-0.2	3%	.
O=C(NCCCN1CCN(Cc2ccccc2Cl)CC1)Nc1ccccc1	16	-9	0.2	0%	25
COCCCNC(=S)N1CCN(c2nc(-c3ccccc3)cs2)CC1	.	4	4.3	.	.
O=C(CCc1nc2ccccc2s1)OCC(=O)N1CCN(C(=O)c2ccco2)CC1	0	-8	-0.8	-7%	4
O=C(OCCN=C1NS(=O)(=O)c2ccccc21)c1ccccc1	1	4	1.4	-3%	-19
Cc1cccc2cc(CN(CCN(C)C)C(=S)NCc3ccco3)c(=O)[nH]c12	5	-2	-0.8	-1%	-29
O=C(Nc1ccc([N+](=O)[O-])cc1)/C(=C/c1cccc([N+](=O)[O-])c1)NC(=O)C1CCCCC1	1	10	-3.3	10%	7
COc1ccccc1C(=O)NC(CCSC)C(=O)NCCCSc1ccccc1 (stereo unspecified)	.	-1	4.8	.	.
COc1cc2c(cc1NC(=O)COC(=O)[C@@H](NC(=O)c1ccccc1F)C(C)C)oc1ccccc12	4	4	-0.3	-2%	-27
C=CCOC(=O)C1=C(C)N=c2s/c(=C3\C(=O)N(CC(=O)O)c4ccccc43)c(=O)n2C1c1ccc(OC)cc1 (stereo unspecified)	.	-3	.	-7%	.
C=C(C)Cn1c(N(CCO)Cc2ccccc2)nc2c1c(=O)[nH]c(=O)n2C	3	?	0.3	5%	4
CNS(=O)(=O)c1cccc(C(=O)OCC(=O)Nc2ccc(OC)cc2[N+](=O)[O-])c1	-2	-3	0.2	8%	.
CCC(C)OC(=O)c1cc(C)nc2c(Br)cc(Br)cc12 (stereo unspecified)	1	4	0.5	2%	-25
COc1ccc(C2CC2/C(C)=N/OC(=O)c2ccc(F)cc2)cc1 (stereo unspecified)	-3	20	6.4	9%	.
COc1cc(/C=N/n2c(C)n[nH]c2=S)ccc1OCc1ccccc1	-6	3	-6.5	-1%	-22
O=C(Nc1c(Cl)cc(Cl)cc1C(=O)NCC1CCCO1)c1ccco1 (stereo unspecified)	7	-4	0.6	3%	-49
COc1ccc(-n2nc(C(=O)NCc3ccco3)c3ccccc3c2=O)cc1	-10	-9	-0.3	5%	6
Cc1cccc(/C=N/NC(=O)CN2CCCCCCC2)c1	9	-3	-0.5	0%	-18
NC(=O)c1c(NC(=O)C2c3ccccc3Oc3ccccc32)sc2c1CCCCC2	-15	-4	3.7	7%	-5
N#Cc1ccsc1NC(=O)CN1CCN(S(=O)(=O)c2ccccc2C(F)(F)F)CC1	-4	8	-1.1	3%	-20
CCOC(=O)c1cc(-c2ccco2)nc2c1c(C)nn2-c1cccc(Cl)c1	-1	99	8.6	0%	-17
Cc1cccc(-n2c(=S)[nH]c3nc4c(cc3c2=O)COC(C)(C)C4)c1	.	0	-0.7	6%	.
COc1cc(C2C(C#N)=C(N)Oc3cc(C)n(CCN4CCOCC4)c(=O)c32)cc(OC)c1OC (stereo unspecified)	4	-8	0.0	-4%	-32
CCn1cnc2cc(NCc3ccccc3Cl)ccc21	.	12	-1.7	.	.
CC(=O)Nc1cccc(NC(=O)Nc2ccc(C)c(Cl)c2)c1	1	-2	-1.4	10%	.
COc1cc(OC)c(C2CC(=O)N3CN(c4ccccc4C)CSC3=C2C#N)cc1OC (stereo unspecified)	5	1	11	-8%	50
Cc1ccccc1-c1nc(S(=O)(=O)c2ccc(Cl)cc2)c(NCCN2CCOCC2)o1	-27	?	2.9	-1%	-8
O=C1CCCC2=C1C(c1cccs1)Nc1ccc3ncccc3c12 (stereo unspecified)	-16	-8	1.9	11%	-17

A portion of the library; rates above refer to the full screens.
